Assay outcomes from PubChem.
LANA-nucl inh: LANA-nucleosome interaction inhibition. FITC-LANA1-23 / chicken nucleosome fluorescence polarization; hits give low values. z-score (no concentration beside the values). actives 0.3% (n = 51,000). AID 720717;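 active = both repeat wells score below -2 in polarization z-score versus plate sample wells, excluding overly bright wells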;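 note: 100 nL library stock added to about 30 µL; numbers are from one replicate; some results filed as inactive read as strong as hits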
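Test system: purified chicken nucleosomes with FITC-labelled LANA N-terminal peptide (1-23); Input: 240 nM purified chicken nucleosomes (480 nM peptide binding sites), final; Medium: TEN-BT buffer, pH 7.5; Timing: 10–45 min, room temperature; Technique: fluorescence polarization, 480 nm excitation, 535 nm parallel and perpendicular emission; Replication: duplicates.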
BasE inh: inhibitors of Acinetobacter baumannii siderophore enzyme BasE. purified BasE, fluorescence polarization binding displacement. inhibition, % (no concentration beside the values). actives 0.1% (n = 84,000);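 active = both replicates above 25% with normal brightness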;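 note: 0% = negative plate control signal and 100% = positive plate control signal; stock transfer was 100 nL into about 30 µL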
Active calls of the source: *; nt = no result given. This is a subset; count on the stated rates, not on these rows.

Fields: LANA-nucl inh, BasE inh
FC(F)(F)CNCc1ccccc1
 : nt, -0.2
CN1CCCN(C(=O)NC(C)(C)C)c2nc3ccccc3nc21
 : nt, 2.0
O=C(O)CCC/C=C\C[C@@H]1[C@@H](/C=C/[C@@H](O)COc2cccc(C(F)(F)F)c2)[C@H](O)C[C@@H]1O
 : 0.467, 1.6
CC(C)n1nnc(-c2ccc(OCc3ccccc3F)cc2)n1
 : 0.948, -0.6
CC(C)N(Cc1ccccc1)C(=S)NC(=O)C1CC1
 : nt, 0.7
Cn1cnnc1-c1cccc(NC(=O)Nc2cccc3ccccc23)c1
 : -0.147, 3.0
CC1=CC(=O)N(CCO)C1c1ccc(Cl)cc1 (configuration not stated)
 : nt, 1.4
Cc1cc2ncn(CCC#N)c2cc1C
 : -0.295, -2.0
CCC(C)(C)n1nnnc1CN1CCC(NC(=O)COC)CC1
 : -0.057, -2.1
CCCCNc1nc2ccccc2n1CC(=O)c1cc(C)n(C)c1C
 : nt, 0.9
Cc1nn(-c2ccccc2)c2sc(C(=O)OCc3cscn3)cc12
 : nt, -0.3
CN(C)C(=O)Cn1cc(S(=O)(=O)Cc2ccccc2)c2ccccc21
 : 0.0515, 0.3
N#CCCn1nc(-c2ccccc2)cc1NS(=O)(=O)c1ccc(Cl)c(Cl)c1
 : 1.58, -1.8
CCC(=O)N1N=C2CCCCC2C1(O)C(F)(F)F (configuration not stated)
 : 0.2, 3.6
Cc1ccc(S(=O)(=O)NC(=O)NC2CCCCC2NC(=O)NS(=O)(=O)c2ccc(C)cc2)cc1 (configuration not stated)
 : nt, 1.8
Cc1ccnc(N2CCCC(C(=O)NCCCc3ccccc3)C2)n1 (configuration not stated)
 : -0.335, 0.8
COc1ccc(Oc2cc(F)nc(N)n2)cc1
 : -1.15, -1.5
N#C/C(=C(/O)CN1CCCN(c2ccc(C(F)(F)F)cn2)CC1)c1nc2ccccc2[nH]1
 : nt, 2.2
COC(=O)CSc1nc2ccccc2n1-c1cccc(C)c1
 : nt, -1.3
Cc1[nH]c2ccc(-c3nnc(SCc4ccc(C(=O)O)cc4)o3)cc2c1C
 : -0.164, -0.6
Cc1ccn2c(C(=O)O)c(C)nc2c1
 : 0.0715, nt
COc1ccc2ncc(O)cc2c1
 : -0.605, 3.1
O=C(CSc1nnc(-c2cccc(S(=O)(=O)N3CCOCC3)c2)o1)Nc1ncc(C(F)(F)F)cc1Cl
 : nt, 2.4
CCCn1c(=O)c(CCc2ccccc2)nc2c1c(=O)[nH]c(=O)n2Cc1ccccc1
 : nt, -1.2
N#Cc1ccccc1CSc1n[nH]c(=O)[nH]c1=O
 : 0.327, -1.4
c1ccc(CN(CCN(Cc2ccccn2)Cc2ccccn2)Cc2ccccn2)nc1
 : 0.0045, -0.2
COc1nc(Nc2ccc(C)cc2)nc(NC2CCCC2)n1
 : 0.907, -2.0
O=C(Nc1ccc(S(=O)(=O)C(F)F)cc1)C1CC(=O)N(Cc2ccccc2)C1 (configuration not stated)
 : nt, -1.3
CCc1ccc(N2C(=O)CC(C(=O)OC)=C2C)cc1
 : -0.404, 2.7
CCOC(=O)C(N)Cc1c[nH]c2ccccc12 (configuration not stated)
 : 0.0765, -2.3

A stretch from the list above, as a working copy:
Fields: LANA-nucl inh, BasE inh
COc1nc(Nc2ccc(C)cc2)nc(NC2CCCC2)n1
 : 0.907, -2.0
O=C(Nc1ccc(S(=O)(=O)C(F)F)cc1)C1CC(=O)N(Cc2ccccc2)C1 (configuration not stated)
 : nt, -1.3
CCc1ccc(N2C(=O)CC(C(=O)OC)=C2C)cc1
 : -0.404, 2.7
CCOC(=O)C(N)Cc1c[nH]c2ccccc12 (configuration not stated)
 : 0.0765, -2.3

(continued)
Fields: LANA-nucl inh, BasE inh
C#CCn1c(C2CC(=O)N(C)C2)nc2ccccc21 (configuration not stated)
 : -0.711, 2.0
COC(=O)/C(=C\c1cccnc1)N(C)C(=O)c1ccc(F)cc1
 : nt, 2.2
CCCS(=O)(=O)NCCc1csc(-c2cccc(C)c2)n1
 : 0.425, 1.6
CC12CN3CC(C)(CN(C1)C3C1CCCCC1)C2=O (configuration not stated)
 : nt, -1.4
Cc1ccc(S(=O)(=O)n2nccc2-c2c(-c3ccc(Cl)cc3)noc2C)cc1
 : -0.8, 2.9
CC1CCCCN1C(=O)C1c2ccccc2Oc2ccccc21 (configuration not stated)
 : nt, 2.5
Cn1c(=NC(=O)Cn2cnnn2)sc2ccccc21
 : nt, -0.5
COCCn1c(Cc2ccccc2)nnc1SCC(=O)c1ccc(O)cc1O
 : nt, 3.3
CN1CCN(NC(=O)Cc2cccs2)CC1
 : 0.623, -2.0
COc1ccc(C2C3CCc4ccccc4C3=NN2C(=O)CN2CCOCC2)cc1 (configuration not stated)
 : -0.204, 0.7

In a second layout: results already given
| Structure | LANA-nucl inh | BasE inh |
| --- | --- | --- |
| C#CCn1c(C2CC(=O)N(C)C2)nc2ccccc21 (configuration not stated) | -0.711 | 2.0 |
| COC(=O)/C(=C\c1cccnc1)N(C)C(=O)c1ccc(F)cc1 | nt | 2.2 |
| CCCS(=O)(=O)NCCc1csc(-c2cccc(C)c2)n1 | 0.425 | 1.6 |
| CC12CN3CC(C)(CN(C1)C3C1CCCCC1)C2=O (configuration not stated) | nt | -1.4 |
| Cc1ccc(S(=O)(=O)n2nccc2-c2c(-c3ccc(Cl)cc3)noc2C)cc1 | -0.8 | 2.9 |

Later entries.
Fields: LANA-nucl inh, BasE inh
CC(C)(C)C(=O)Nc1ccn([C@H]2C[C@H](O)[C@@H](COC(=O)C(C)(C)C)O2)c(=O)n1
 : nt, 0.3
COc1cc(OC)nc(/N=C/N(C)C)n1
 : nt, -1.2
O=C(Nc1ccc(Cl)c(Cl)c1)OCc1cccnc1
 : nt, 0.8
O=C(CSc1nnc(COc2ccccc2)o1)Nc1ccccc1
 : nt, 0.3
COc1cc(/C=C/C(=O)O)ccc1Cc1ccc(C(=O)O)o1
 : nt, 2.3
CNC(=O)CSc1nnc(-c2ccccc2F)n1C1CCCCC1
 : nt, 0.5
O=C1Nc2ccccc2/C1=N\N=C1/SCC(=O)N1c1ccc(O)cc1
 : -0.127, 2.9
CCOc1cc(N2CCOCC2)c(OCC)cc1NC(C)=O
 : 0.328, nt
Cc1ccc(CSc2nc3ccc(C(=O)NCCN4CCOCC4)cc3n2C)cc1
 : -0.37, -13.2
CCC(C)(C)NC(=O)Cn1nnc(-c2ccc(OC)cc2)n1
 : -0.573, -0.2
O=C(CCN1C(=O)c2ccccc2C1=O)Nc1ccc(S(=O)(=O)Nc2nccs2)cc1
 : nt, 1.3
O=C1C(c2c(O)n(-c3cc(Cl)cc(Cl)c3)[nH]c2=O)=Nc2ccccc21
 : nt, -0.1
CCc1cc2c(=O)n(NC(=S)NC)cnc2s1
 : nt, 0.4
CN1CCN(C(=O)Cn2ncc3c4ccccc4n(C)c3c2=O)CC1
 : 0.57, 2.4
COc1ccc(-c2noc(CNC3CCCCC3)n2)cc1
 : -0.196, -1.6
CC1Cc2cc(S(=O)(=O)NCCN3CCN(Cc4ccccc4)CC3)ccc2N1C(=O)C1CC1 (configuration not stated)
 : -0.793, 1.5
COC(=O)c1c(C)[nH]c(C(=O)COC(=O)Cn2cc(C(F)(F)F)ccc2=O)c1C
 : nt, 0.1
N#Cc1c(-c2cccs2)cc(-c2ccccc2)nc1OCC(=O)c1ccccc1
 : nt, -0.9
COC(=O)/C(=C/C=C/c1ccccc1)NC(=O)c1ccccc1
 : nt, 2.4
Nc1[nH]c(=O)[nH]c(=O)c1N=Nc1ccccc1Cl
 : 1.33, 1.1
COc1ccc(Br)cc1CNC(C)(C)CO
 : -0.444, 5.4
O=C(O)C1CCC(c2ccc(-c3ccccc3)cc2)CC1 (configuration not stated)
 : nt, 0.9
Cc1cc(C)c(C)c(S(=O)(=O)N2CCN(C(=O)c3ccco3)CC2)c1C
 : 2.04, -1.8
CCOC(=O)c1cc(-c2ccccc2)nnc1Cl
 : -1.42, nt
CC(=O)N1CCN(c2nc(N)c3c(N)nc4c(c3c2C#N)CC(=O)N4C)CC1
 : nt, 1.6
CN(C)c1ccc(/C=C2/C(=O)ON=C2c2ccccc2)cc1
 : -0.785, 4.1
N#C/C=C1/NC(=O)CS1
 : nt, 1.4
CN(C(=O)CCOc1ccccc1)c1c(N)n(Cc2ccccc2)c(=O)[nH]c1=O
 : nt, 0.1
CN(c1ccccc1)N1C(=O)CSC1=S
 : -0.902, 0.1
COc1cc(/C=N/NC(=O)Cc2cn3ccsc3n2)cc(OC)c1O
 : nt, -0.5
Cc1cccc(NS(=O)(=O)c2ccc3[nH]c(=O)cc(C)c3c2)c1
 : -0.251, 2.7
O=C(Oc1ccccc1C(=S)N1CCOCC1)c1ccccc1
 : nt, -0.2
O=C(Nc1ccnc(-c2cccnc2)n1)c1cccc(C(F)(F)F)c1
 : 0.213, nt
CCc1ccc(NC(=O)CSc2ccccc2)cc1
 : -0.78, 1.6
CC1(C)CC(N2CCCC2)=C/C(=N/NC(=O)c2cccnc2)C1
 : nt, 1.2
O=C(NCc1cn2ccsc2n1)C1c2ccccc2Oc2ccccc21
 : nt, 0.0
CC(=O)N1CCC2(CC1)C(C#N)=C(N)SC(N)=C2C#N
 : 1.21, -2.1
Cc1cc(OCC(O)CN2C(C)CCCC2C)ccc1C(C)C (configuration not stated)
 : nt, -0.4
CN(C)c1ccc(/C=C2\C(=N)N3N=C(S(C)(=O)=O)SC3=NC2=O)cc1
 : 15.6, -7.3
COc1cccc(OC)c1C(=O)OCC(=O)c1cc2ccccc2o1
 : nt, -0.5
Cc1ccc(NCN2C(=O)c3ccccc3C2=O)cc1
 : 0.236, 4.1
CCOC(=O)C1CCN(CN2C(=O)C3(SCC(=O)N3c3cccc(Cl)c3)c3ccccc32)CC1 (configuration not stated)
 : -0.878, 4.8
N#Cc1ccc(COC(=O)CC2CCCC2)cc1
 : nt, 1.9
OCCN(CCO)c1nc2ccccc2[nH]1
 : 0.163, -0.4
O=C(Cn1nc(-c2ccccc2)ccc1=O)NCC1COCCO1 (configuration not stated)
 : 0.75, -2.0
O=C(CN1CCC(n2nnc3cc(C(F)(F)F)ccc32)CC1)N1CCc2ccccc21
 : -0.486, -2.2
CCN(CC)S(=O)(=O)c1ccc(NC(=O)COC(=O)Cc2cccs2)cc1
 : nt, -1.9
CCOc1ccc(NC(=O)CSc2nnnn2C2CCCC2)cc1
 : -0.0075, 0.3
CC(=O)N(Cc1cc2ccccc2[nH]c1=O)C1CCCCC1
 : -0.282, -1.3
CCC(Sc1c[nH]c2ccccc12)C(=O)O (configuration not stated)
 : -0.634, 1.1

Remaining list, next part:
Fields: LANA-nucl inh, BasE inh
CCc1ccccc1NC(=O)CCC(=O)N1CCCn2nc(C)cc21
 : nt, -2.3
O=C(O)CCN1C(=O)c2ccccc2Sc2ncccc21
 : -1.48, -0.9
Cc1ccc(N2C(=O)N(Cc3cc(=O)n4ccsc4n3)C(=O)C2C)cc1 (configuration not stated)
 : nt, 0.2
N#Cc1ccc(S(=O)(=O)N2CCNC(=O)C2CC(=O)Nc2cc(Cl)ccc2Cl)cc1 (configuration not stated)
 : -1.75, 0.0
CN(C)C(=O)NC1C=CS(=O)(=O)C1 (configuration not stated)
 : -0.996, -1.1
OCCn1c(CSc2ccccc2)nc2ccc(Cl)cc21
 : nt, 1.7
COC(C(=O)Nc1ccccc1C(=O)N1CCOCC1)c1ccccc1 (configuration not stated)
 : 0.615, 1.4
O=C(O)CCN=CC1=C(O)CC(c2ccccc2)CC1=O (configuration not stated)
 : nt, 0.0
CN(C)S(=O)(=O)c1ccc(N2CCCC2)c(C(=O)OCc2cn3cc(Cl)ccc3n2)c1
 : nt, 0.5
Cc1csc2nc(O)c(C(=O)NCCN(C)C)c(=O)n12
 : 1.41, -0.6
NS(=O)(=O)c1ccc(NC(=S)NC(=O)C2CCCCC2)cc1
 : -0.036, 0.7
COC(=O)Nc1cn(Cc2cccnc2)c(=O)c2ccccc12
 : -0.373, nt
Cc1ccc(C(=O)OCC(=O)NN2C(=O)NC3(CCC(C)CC3)C2=O)cc1 (configuration not stated)
 : nt, 1.3
CN1CCN(Cn2c(O)c(N=NC(=O)c3ccc(Br)cc3)c3cc(Br)ccc32)CC1
 : 0.301, -3.0
COCCNC(=O)c1cc(C(=O)c2cc(Cl)ccc2O)coc1=N
 : nt, -1.4
COc1cccc(C(=O)N/C(=C\c2cccnc2)C(=O)N2CC3CC(C2)c2cccc(=O)n2C3)c1 (configuration not stated)
 : -1.53, 2.1
O=C(O)CCCN1C(=O)COc2ccc(Cl)cc21
 : -0.436, 2.5
COc1cccc(OC)c1C(=O)N1CCNCC1
 : -0.192, -0.6
COC(=O)C1=C(C)N=C2SC(C#N)=C(N)N2C1c1cccs1 (configuration not stated)
 : nt, -0.3
Brc1ccc(CN2CCN(Cc3ccccc3)CC2)s1
 : -1.05, -1.7
Cc1ccc(O)c(C(=O)c2cnn(C(=O)c3cccc(S(=O)(=O)N4CCCC4)c3)c2)c1
 : nt, 0.6
CCOC(=O)c1c(C)[nH]c(C)c1C(=O)COC(=O)CCC1CCCC1
 : nt, 0.7
CCN(C(=O)CSc1nnc(-c2ccccc2)c(-c2ccccc2)n1)C1CCS(=O)(=O)C1 (configuration not stated)
 : nt, 0.5
C=CCn1c(C)cc(C(=O)COC(=O)c2ccc(S(=O)(=O)N3CCCC3)cc2)c1C
 : nt, -2.1
